Compound activity: PubChem BioAssay, National Center for Advancing Translational Sciences (NCATS)
gsp agonist = activates gsp, the McCune-Albright syndrome mutation; 340,000 compounds, 0.13% hits; AID 624287; Potency, µM (titrated, usually from 76.9 µM), for inactives: at the top dose activation (cAMP increase), actives largely listed as activators; gsp mutant cells, cAMP HTRF, 30 min; control for the full effect not named in the record; active = well fitted activation curve with a large enough effect; inconclusive = small, poorly fitted or top-dose-only effect, or another doubt; inactive = no such curve, though single readings can be large or run the other way; cell line not stated here;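 note: phosphodiesterase inhibitor Ro 20-1724 added with compounds to block cAMP breakdown; potency is the fitted concentration of half-maximal effect; nearly all actives have a fitted effect of over 60% in size; about a fifth of the inactives were tested at one dose only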
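Cells stably selected in G418 were plated at 2000/well, grown 16-24 hr, then given compounds in DMSO with the PDE inhibitor […] (300 uM solution added) for 30 min at 37C; cAMP was read by HTRF.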
ClpP mod = qHTS Assay for Activators of ClpP. 340,000 compounds, 1.9% hits. purified B. subtilis ClpP, FRET peptide cleavage, 20 min. AID 651965, 2013. Potency, µM (titrated, usually from 57.5 µM), for inactives: at the highest dose activity change, negative = active; active = well fitted falling curve with a large enough effect; inconclusive = small, poorly fitted or top-dose-only effect; inactive = no such curve, though single readings can be large or run the other way; note: potency is the fitted concentration of half-maximal effect; the source files actives as falling curves though it sought activators and does not explain the sign; nearly all actives have a fitted effect of over 65% in size; many hits overshoot -100%
Target sequence (P80244 whole entry, looked up): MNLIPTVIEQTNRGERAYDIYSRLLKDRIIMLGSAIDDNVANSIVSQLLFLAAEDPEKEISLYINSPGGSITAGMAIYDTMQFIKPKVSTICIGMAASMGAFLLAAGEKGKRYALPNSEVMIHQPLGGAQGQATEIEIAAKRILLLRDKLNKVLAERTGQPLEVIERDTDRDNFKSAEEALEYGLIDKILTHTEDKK
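ClpP 10 microg/mL final, pH 8 Tris/KCl buffer with BSA, glycerol, Tween-20; compound pinned in; FRET-FV substrate; RT 20 min; Ex320/Em430; ΔFRET vs ADEP 5.8 microM, DMSO, no enzyme.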
Menin MLL FP FL = menin-MLL binding inhibition, fluorescein peptide. Fluorescence polarization, fluorescein-MLL peptide displacement from menin. FP activity change, % at 61.4 µM. 290,000 tested, under 10 active. AID 1766; inconclusive = falling polarisation curve, or a change in total fluorescence; inactive = total fluorescence flat and polarisation flat or rising; no compound was filed as active; the % refers to the polarisation; negative = inhibition;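 note: % of control where 0% means no effect; inhibitors lower the polarisation; unlabelled MLL peptide was the positive control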
TRPV1 potentiator = enhances activation of the human vanilloid receptor TRPV1. Q8NER1. TRPV1-expressing cells, Fluo-8 calcium influx, capsaicin EC20 potentiation; host cell line not named in the record; control for the full effect not named in the record. potentiation, % at 8.33 µM. 320,000 compounds, 0.02% hits; active means potentiation above 80%; inconclusive means 30% to 80%; inactive means below 30%; note: 0% is about no effect
Target sequence (Q8NER1 whole entry, looked up): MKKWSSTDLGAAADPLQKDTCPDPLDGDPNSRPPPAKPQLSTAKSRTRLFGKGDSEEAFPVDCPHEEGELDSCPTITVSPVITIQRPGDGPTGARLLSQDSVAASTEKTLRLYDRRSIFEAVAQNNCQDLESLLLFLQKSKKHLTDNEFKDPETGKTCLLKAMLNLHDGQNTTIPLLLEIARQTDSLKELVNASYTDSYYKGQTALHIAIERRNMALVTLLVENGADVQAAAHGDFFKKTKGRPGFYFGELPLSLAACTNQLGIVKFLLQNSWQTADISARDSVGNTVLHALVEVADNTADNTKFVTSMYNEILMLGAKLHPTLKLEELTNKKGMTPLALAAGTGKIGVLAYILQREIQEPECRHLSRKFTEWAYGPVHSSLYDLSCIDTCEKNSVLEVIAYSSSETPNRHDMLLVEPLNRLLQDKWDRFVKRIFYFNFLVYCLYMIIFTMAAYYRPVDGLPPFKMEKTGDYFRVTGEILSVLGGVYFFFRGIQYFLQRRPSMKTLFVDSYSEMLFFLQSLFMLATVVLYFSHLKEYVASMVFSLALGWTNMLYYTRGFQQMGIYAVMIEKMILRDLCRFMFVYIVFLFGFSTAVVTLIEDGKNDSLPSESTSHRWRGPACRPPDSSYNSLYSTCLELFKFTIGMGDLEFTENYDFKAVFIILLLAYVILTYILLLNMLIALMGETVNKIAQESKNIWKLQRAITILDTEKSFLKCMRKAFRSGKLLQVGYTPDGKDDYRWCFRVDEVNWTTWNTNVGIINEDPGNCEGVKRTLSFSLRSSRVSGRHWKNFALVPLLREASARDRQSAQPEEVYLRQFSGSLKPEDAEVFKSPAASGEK
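TRPV1-expressing cells were cultured overnight at 35.5C and loaded with Fluo-8 calcium dye for 40 to 90 min at room temperature. After a 10 s baseline, compound was added and calcium influx was read kinetically for 3 min (ex 480/em 520 nm).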
gsp antag = antagonists of gsp mutant (McCune-Albright syndrome). gsp-mutant cells, cAMP HTRF, 30 min; control for the full effect not named in the record. Potency, µM (top dose mostly 76.9 µM), inactives show at the highest dose activity change, negative = inhibition, hits mostly inhibitors. 340,000 compounds, 0.4% hits. AID 624288; active = falling curve of any shape with a large fitted effect; inconclusive = falling curve, mostly with a smaller effect; inactive = flat or rising curve; cell line not stated here;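 note: intracellular cAMP measured with PDE inhibitor Ro 20-1724 present during compound exposure; potency is the fitted concentration of half-maximal effect; % is set by controls: 0 for no effect and ±100 for the full control effect; nearly all actives have a fitted effect of over 65% in size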
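HTRF cAMP read-out (cAMP-d2 plus anti-cAMP antibody-K in lysis buffer, 30 min RT). Before lysis, cells are exposed to compounds with […] for 30 min at 37C in DPBS containing Ca/Mg, BSA and Tween 20.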
CtBP-E1A inh = CtBP/E1A binding inhibition; AlphaScreen GST-E1A/His-CtBP binding, 1536-well; active compounds read low; control for the full effect not named in the record; AID 651724; activity change, % (no concentration beside the values); 340,000 compounds, 0.49% hits; in the data active means activity change below about -65%; inconclusive means about -30% to -65%; inactive means above about -30%; note: % is set by controls: 0 for no effect and ±100 for the full control effect
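In 5 uL wells, 23 nL compound meets equimolar GST-E1A and His-CtBP (5X stock 125 nM each) for 2 h, 37 °C. Beads (5X, 50 ug/mL) then 1 h, 37 °C, dark.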
Sfp PPTase inh = inhibitors of Bacillus subtilis Sfp phosphopantetheinyl transferase | Q9F4F7 | Biochemical Sfp PPTase activity, qHTS | Potency, µM, inactives show max response, negative = inhibition, hits mostly inhibitors | 310,000 compounds, 3.5% hits | AID 1490; active = well fitted inhibition curve with a large enough effect; inconclusive = small, poorly fitted or top-dose-only effect, or another doubt; inactive = no such curve, though single readings can be large or run the other way;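 note: the enzyme is Sfp with the accession as filed and its product quenches rhodamine fluorescence; potency is the fitted concentration of half-maximal effect; 0% = enzyme reaction without inhibitor and -100% = no enzyme wells; top concentration of the series not given in the record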
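Sfp 15 nM + cpd, 15 min RT; start w/ rhodamine-CoA 5 uM, BHQ-2-YbbR 12.5 uM (final); 50 mM Hepes pH 7.6, 10 mM MgCl2, 0.01% NP-40, 0.01% BSA; read 525/598 nm at 0 and 30 min.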
Numbers without * were called inactive; ? = inconclusive; / = not tested or not shown; & = joins results of further samples; [ ] = remark or other dose.

SMILES | gsp agonist | ClpP mod | Menin MLL FP FL | TRPV1 potentiator | gsp antag | CtBP-E1A inh | Sfp PPTase inh
CCOC(=O)c1nnc(-c2cccs2)nc1NC(C)C | -14% | -1.0% | 2.6 | -14 | -13% | -15 | 3%
COc1ccc(CN(C)[C@H]2C[C@H]3c4[nH]c5ccccc5c4CCN3C[C@H]2[C@H](C)O)cc1 | 12% | -17% | / | / | / | 6 | /
O=C(CN1CCCC1)Nc1cccc(Cl)c1 | ? | -0.5% | -2.5 | -11 | 16% | 0 | -2%
CC(=O)N1c2ccc(S(=O)(=O)N3CCCC(C(=O)NC4CCCC(C)C4C)C3)cc2CC1C (stereo not given) | -16% | -0.1% | -0.1 | -2 | -9% | 0 | 17%
O=C(CSc1nnc(NC(=O)c2ccco2)s1)Nc1cccc(F)c1 | 28% | -2.4% | / | 17 | -15% | -11 | -3%
O=C(COC(=O)c1ccc(F)cc1F)NCCC1=CCCCC1 | -10% | -2.7% | / | -22 | 10% | -11 | /
COc1ccc(OCc2cn3c(C)cc(C)nc3n2)cc1 | -25% | -4.8% | 3.0 | 3 | 11% | -9 | 6%
CCOC(=O)c1cn2nc(SCc3ccccc3)nc2nc1C | 4%[15.4 µM] | -1.1% | 0.9 | -11 | -17% | 7 | -16%
c1ccc(-c2nnc(OCC3CCCO3)c3ccccc23)cc1 (stereo not given) | 8%[15.4 µM] | / | -1.9 | -8 | -9% | -5 | 12%
Cc1c(Cl)cccc1NC(=O)Cn1cc(C(F)(F)F)cc(Cl)c1=O | -1%[15.4 µM] | / | 12 | -7 | 17% | 3 | ?
Cc1ccc(CSCCNC(=O)CSCc2ccc([N+](=O)[O-])cc2)cc1 | 1% | -0.1% | -0.7 | -11 | -17% | -7 | 17%
CCN(CC(=O)Nc1ccccc1SC)Cc1nc2ccccc2c(=O)[nH]1 | -4%[15.4 µM] | / | 2.4 | 0 | -8% | -2 | -5%
Cc1ccc(-c2nc(-c3ccccc3)no2)cc1 | -19% | 0.5% | 5.6 | -5 | 12% | 39 | 0%
COc1ccc(CN(C)S(=O)(=O)c2ccc3c(c2)OCCO3)cc1 | -9% | 1.0% | 2.3 | -17 | ? | 9 | 0%
CCOC(=O)C1CCCN(c2oc(-c3ccc(OC)cc3)nc2C#N)C1 (stereo not given) | 17% | 4.2% | 1.2 | -21 | -58% | 2 | 3%
CC(C)n1ncc2c(C(=O)NCCc3ccc(S(N)(=O)=O)cc3)cc(C3CC3)nc21 | -24% | 32µM* | / | -2 | -10% | 0 | /
CCOc1ccc(S(=O)(=O)NN)cc1 | 0% | 2.3% | 2.0 | 4 | 0% | -1 | 9%
Cc1cc(Cl)ccc1OCC(=O)Nc1ccccc1CO | ? | -2.2% | 1.9 | 2 | -1% | 20 | 15%
CC(C)c1nnc(NC(=O)CC(C)c2ccccc2)s1 (stereo not given) | 4%[15.4 µM] | 0.0% | -2.1 | 21 | 16% | 2 | -2%
S=C(NCc1cccs1)Nc1ccccc1 | ? | 1.1% | 0.9 | -3 | 10% | -1 | -5%
COc1cccc(CNC(=O)CCC(=O)N2CCOCC2)c1 | 18% | -1.9% | / | 15 | 10% | -12 | /
O=c1oc2ccccc2c(NC2CCCCC2)c1NS(=O)(=O)c1ccc(Br)cc1 | 42% | -20% | / | 0 | ? | -7 | 20%
CCOC(=O)C1=C(CC)Nc2ccccc2N=C1NC(=O)Nc1ccc(Cl)c(Cl)c1 | -7% | -7.5% | 4.2 | -1 | 32µM* | -1 | ?
FC(F)(F)c1nc2nc(Cl)c(Cl)nc2n1CCCN1CCOCC1 | -14% | 3.9% | / | / | / | -12 | /
CC(=O)c1cccc(NC(=S)NC2CCCCC2)c1 | -4% | 14µM* | 0.2 | 1 | 1% | -13 | 0%
CCCc1cc(=O)oc2c(CN3CCCC3)c(O)ccc12 | 5% | -48% | 3.1 | 2 | -2% | 11 | 3%
CC(C)N(C(=O)[C@H]1CC(CC(=O)NCCc2ccccn2)C(=O)N2CCc3c([nH]c4ccccc34)[C@]12C)C(C)C (stereo not given in full) | / | -1.5% | / | / | -1% | -1 | /
COc1cc(C(=O)NCc2nnc(SCC(=O)N3CCCC3)o2)cc(OC)c1OC | -15% | -5.5% | / | -10 | 5% | -9 | 4%
CCCCOc1ccc(NC(=O)CN2CCN(CC)CC2)cc1 | -11%[15.4 µM] | 0.4% | 1.3 | 5 | 18% | 5 | ?
N#C/C=C1/NC(=O)c2ccccc2S1 | -1% | -2.5% | 6.2 | 4 | -4% | -10 | 7%
COc1ccc(NS(=O)(=O)c2ccc(N3CC(O)=C(c4ccccc4)C3=N)cc2)cc1 | 5%[15.4 µM] | / | -0.3 | 19 | 5% | -8 | 19%
Clc1ccc(OCCSc2ncccn2)c(Br)c1 | 3%[15.4 µM] | / | -4.7 | 12 | / | -20 | -1%
COCCNC(=O)c1cc(-c2ccc(OC)c(OC)c2)on1 | 9% | -1.2% | 0.4 | 2 | 4% | 6 | 16%
CCN1CCN(C(=O)CSc2cc(=O)n(C)c3ccccc23)CC1 | 8%[15.4 µM] | / | 1.9 | 2 | -2% | -2 | -2%
Cc1ccc(C)c(N2CCN(C(=O)CCCn3ncn4c(cc5occc54)c3=O)CC2)c1 | 21% | -1.4%&0.7% | 2.8 | -7 | -29% | -14 | -9%
O=C(c1cc(C2CC2)nn1-c1ccccc1)N1CCN(S(=O)(=O)c2c(F)cccc2F)CC1 | -64%[inhibitor] | 7.0% | / | 0 | -11% | 2 | /
c1ccc2sc(NC3=NCN(C4CCCCC4)CN3)nc2c1 | 30% | 1.1% | 1.0 | 1 | 2% | 4 | -12%
CSc1ncnc2c1ncn2CCCN1CCN(c2ncccn2)CC1 | 20% | -0.5% | / | / | / | 3 | /
COCCN(C(=O)CCCC(=O)Nc1ccccn1)C(C(=O)NC1CCCC1)c1ccc(C)cc1 (stereo not given) | -18% | 0.7% | 1.2 | 21 | 0% | 5 | 1%
COc1cc(NS(=O)(=O)c2cc(C(=O)N3CCN(C(C)=O)CC3)ccc2OC)cc(OC)c1 | 16% | / | -2.8 | -2 | 8% | 4 | 7%
O=C(Cn1cncn1)c1ccc(Cl)cc1 | -30%[inhibitor][15.4 µM] | / | 0.4 | 4 | 5% | 0 | 17%
CCN(CC(=O)NCCc1ccccc1)S(=O)(=O)c1ccc(C)cc1 | 0% | 0.6% | 1.9 | 2 | 7% | 5 | 0%
COc1ccc(CN(C)C(=O)CCN=C2NS(=O)(=O)c3ccccc32)c(OC)c1 | 35% | 0.4% | / | 4 | 5% | 0 | /
CS(=O)(=O)N(CC(=O)Nc1ccc2c(c1)OCO2)Cc1ccc(Cl)cc1 | -41%[inhibitor] | -3.8% | 0.7 | 1 | 3% | -9 | 8%
CCOc1ccccc1/C=N/NC(=O)c1nnn(-c2nonc2N)c1CN1CCC(C)CC1 | 1%[15.4 µM] | / | 4.4 | 21 | 7% | -2 | 11%
COc1cc(C(C2C(=O)CC(C)(C)CC2=O)C2C(=O)CC(C)(C)CC2=O)cc(OC)c1OC | -4%[15.4 µM] | -1.2% | -14 | 0 | -1% | 0 | ?
COc1ccc(-c2cc(C(F)(F)F)n3nc(C(=O)NCCN4CCOCC4)cc3n2)cc1 | -10%[15.4 µM] | 1.2% | -4.6 | -3 | 6% | -1 | 10%
CCOC(=O)C1C(C(=O)OC)=C(C2=CCCCC2)c2ccccc2N1S(=O)(=O)C(F)(F)F (stereo not given) | / | -5.8% | 0.3 | / | -1% | 4 | 10%
Cc1ccc(-c2nnc(SCC(=O)N(C)C)nc2-c2ccc(C)cc2)cc1 | -31% | / | -0.8 | -2 | ? | -4 | -1%
O=C(Cc1ccccc1F)Nc1ccc(Cl)nc1 | 3% | 1.1% | -1.8 | -4 | 11% | -3 | -2%
Cc1cc(SCc2ccc(Cl)cc2)nc(=O)[nH]1 | 13% | 0.4% | / | -6 | -7% | / | 1%
CC(=O)c1cc2c(cc1NC(=O)CN1CCC(Cc3ccccc3)CC1)OCO2 | -38%[inhibitor] | -23% | 1.2 | -7 | -2% | -2 | -1%
COc1cccc(N2C(=O)Nc3ccc(Br)cc3C2(O)C(=O)NCCCOC(C)C)c1 (stereo not given) | ? | / | -5.2 | 21 | 10% | 9 | 13%
Cc1ccc(NC(=O)CNCc2ccccc2Cl)cc1S(=O)(=O)N(C)C | -2%[15.4 µM] | -0.1% | -1.8 | ? | -35% | -1 | ?
CC(C)(C)OC(=O)C[C@H]1C/C=C\C[C@@H](CC(=O)N[C@@H](CO)Cc2ccccc2)C(=O)NC[C@@H](c2ccccc2)OC1=O | -1% | 1.1% | / | / | -1% | / | /
Cc1ccccc1NC(=O)c1cc(C(=O)c2cc(Cl)ccc2O)cn(-c2ccccc2C)c1=O | -31%[inhibitor] | 8.4% | 12 | -2 | ? | -20 | -4%
CC(C)NC(=S)N/N=C1\CCCc2ccccc21 | -28% | 0.9% | 0.8 | -6 | 12% | 0 | 5%
CCC/C(=N\NC(=O)C1CCCC1)c1ccccc1 | 6% | 3.0% | -2.6 | -24 | 16% | 6 | -7%
COCCCn1c(=S)[nH]c2sc3c(c2c1=O)CCCS3 | 18%[15.4 µM] | / | 7.1 | 6 | 4% | 5 | 35µM*
Cc1cc(SCC(=O)c2ccccc2)nc(C)n1 | -18% | -1.7% | 0.0 | 10 | -1%[15.4 µM] | 4 | 4%

Other results.
SMILES | gsp agonist | ClpP mod | Menin MLL FP FL | TRPV1 potentiator | gsp antag | CtBP-E1A inh | Sfp PPTase inh
O=C(CNC(=O)c1cccs1)N/N=C/c1cccc(Cl)c1 | -6% | 1.3% | / | 1 | 3% | 5 | 5%
O=C(COC(=O)c1ccccc1[N+](=O)[O-])Nc1cccnc1Cl | 32%[15.4 µM] | / | / | 29 | 0% | 8 | /
O=C(Nc1ccccc1)N1CCC(O)(c2cccc(C(F)(F)F)c2)CC1 | -48%[inhibitor] | / | 4.1 | -9 | 7% | -11 | 14%
CCc1ccc(N(CC(=O)NC(C)(C)CC)C(=O)CCC(=O)Nc2nccs2)cc1 | -13%[15.4 µM] | 1.7% | 3.7 | -6 | ? | 0 | 13%
